# S aureus helic: blocks Staphylococcus aureus DNA helicase; purified S. aureus helicase, fluorescence unwinding assay; about half of the hits fall short of the stated cut; inhibition, %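 (tested at about 80 µM)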; 120,000 tested, 0.05% active; AID 485395;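 active means both duplicates at 50% or more, or one of them with a favoured structure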;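 further: 0% = mean of negative control wells and 100% = mean of positive control wells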
# MgrA DNA FP: S. aureus MgrA-DNA binding modulation | inhibition, %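 (about 10 µg/mL by stock and volumes)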 | 84,000 tested, 0.13% active | AID 602314 | fluorescence polarization;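 active means above 50% in either of two replicates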;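 further: 0% = protein plus DNA without compound and 100% = DNA alone without protein; higher means less MgrA bound to DNA so lower polarization; one replicate is shown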
# * = called active by the depositor; . = no result given. The list is partial; count on the stated rates, not on these rows.
SMILES,S aureus helic,MgrA DNA FP
CC(C)C(NS(=O)(=O)c1cccs1)C(=O)O (stereo not drawn),1,-2.8
Cn1nnnc1SCC(=O)N1CCCc2ccccc21,5,0.0
O=C1C2=C(Nc3ncnn3C2c2ccccc2)c2ccccc21 (stereo not drawn),8,0.5
COc1ccccc1N1C(=O)c2ccc(-c3nc4cc(Cl)ccc4c(=O)o3)cc2C1=O,-5,1.4
Cc1ccccc1NC(=O)COC(=O)c1ccc(-c2ccccc2)cc1,3,0.2
COc1ccc(-c2nsc(NC(=O)CC(C)C)n2)cc1,16,.
O=C1CN(S(=O)(=O)c2cccc(C(=O)O)c2)c2ccccc2N1,12,.
Cc1nn(C)c(C)c1NC(=O)c1ccccc1N,.,-2.0
O=C(NCc1cn2ccsc2n1)c1cc(Cl)cc(Cl)c1,15,0.5
N#Cc1c(C2CCCCC2)nc(Sc2ccc(C(F)(F)F)cc2[N+](=O)[O-])[nH]c1=O,.,0.0
CCC(=O)C(C#N)c1nnc(-c2ccccc2)s1 (stereo not drawn),-15,.
CCOC(=O)C1=C(CC)Nc2ccccc2N/C1=N\S(=O)(=O)c1ccccc1OC,6,.
Cc1cc(NC(=O)/C=C/C(=O)O)no1,.,-5.8
Cc1onc(-c2c(Cl)cccc2Cl)c1-c1noc(CSc2ccccn2)n1,-7,.
CCOc1ccc(CN(C)C(=O)C2CCN(S(=O)(=O)c3ccccc3F)CC2)cc1OC,16,.
c1ccc2c(c1)nc(NC1CC1)c1nnnn12,14,-0.5
CCn1cc2nc(SCC(N)=O)n(CCc3ccccc3)c(=O)c2n1,13,.
NC(=O)C1CCN(C(=S)NC(=O)C2CC2)CC1,2,.
O/N=C1\CCCc2c1[nH]c1ccc(Cl)cc21,0,.
CCOc1ccc(OCCSc2nc3ccccc3n2CC(N)=O)cc1,.,1.2
O=C(COc1ccc2c(c1)CCC2)N(Cc1nnc(-c2ccc(Cl)cc2)o1)C1CC1,-13,.
NNC(=O)c1csc(Cc2c(Cl)cccc2Cl)n1,.,-0.6
CCOC(=O)C1=NN(C(=O)c2cccc(OC)c2)C(O)(C(C)(C)C)C1 (stereo not drawn),8,0.5
CCn1c(-c2nonc2NC(=O)c2ccccc2)nc2ccccc21,13,-2.7
S=C(NCc1ccco1)Nc1ccn(C23CC4CC(CC(C4)C2)C3)n1,7,0.7
CN(C)c1ccc(/C=C/C2=Nc3ccccc3SC(C)(C)C2)cc1,-6,0.1
CC(C)OC(=O)NC1(C(F)(F)F)Oc2ccccc2O1,14,.
O=C(O)CCCc1ccc2c(c1)OCO2,.,-2.7
CCC(=O)OCC(=O)Nc1nc2ccccc2s1,-10,.
NC(=N/c1nc2ccccc2o1)/N=C/c1c(O)[nH]c(=O)[nH]c1=O,-3,-0.9
NC(=O)OCC(O)COc1ccc(Cl)cc1 (stereo not drawn),.,0.9
COc1ccc(-c2n[nH]c(=S)n2-c2ccccc2C)cc1OC,13,1.5
COC(=O)c1ccc(CS(=O)(=O)c2ccc(OC)cc2)o1,9,1.1
CCc1ccc(N2CCCCn3c2nc2c3c(=O)n(CCc3ccccc3)c(=O)n2C)cc1,37,.
O=c1cnnc2sc(SCc3ccccc3)nn12,11,.
O=C(Nn1cnc2ccccc2c1=O)c1ccccc1,7,-0.4
COc1ccc(-c2nnc(NC(=O)c3ccc(S(=O)(=O)N4CCCc5ccccc54)cc3)o2)cc1,5,.
CC1(C)C2CC=C(/C=N/NC(=O)Cc3cn4ccsc4n3)C1C2 (stereo not drawn),-6,.
CCn1c(=O)cc(SCC(=O)Nc2cccc(C#N)c2)c2ccccc21,-14,.
COc1ccc(-c2nnc3ccc(Cl)nn23)c(OC)c1,1,-2.8
O=C(CCc1ccccc1O)N1CCN(c2ncccn2)CC1,5,.
COc1ncnc2c1[nH]c1ccccc12,7,.
NC(=O)c1ccsc1NC(=O)/C=C/c1ccccc1,11,.
CC(=O)Nc1ccc(S(=O)(=O)Nc2cc(C)nc(C)n2)cc1,4,3.9
O=C(O)CCN1C(=O)C(=O)/C(=C(/O)c2ccccc2)C1c1ccccc1 (stereo not drawn),-3,-1.3
COc1ccccc1NC(=O)CN1C(=O)CSC(C)C1=O (stereo not drawn),3,.
CCOC(=O)c1cnc2ccc(C)cc2c1Nc1ccc(N2CCOCC2)cc1,14,2.0
COc1ccc(-c2noc(N(C)CC(=O)Nc3ccccc3OC)n2)cc1,7,.
COc1ccc2c(c1)c(=O)oc1c(C)c(OC(C(=O)O)c3ccccc3)ccc12 (stereo not drawn),12,23
CNC(=O)c1ccc(Nc2nnc(C)c3ccccc23)cc1,18,-5.1
COCC(C)NCc1ccccc1OC (stereo not drawn),6,1.1
Cc1cc2[nH]c(=O)c(=O)[nH]c2cc1S(=O)(=O)NCc1ccccc1,8,0.6
Cc1nc(-c2cc(C#N)c(=O)[nH]c2C)cs1,.,0.1
CCn1cnc2cc(NCc3cccs3)ccc21,9,.
CCN(CC)c1ncnc2ccc(Br)cc12,-7,2.0
CC(C)(C)c1cc(CN2CCN(CCC#N)CC2)cc(C(C)(C)C)c1O,11,0.4
c1ccc2c(c1)nnn2Cc1ccc(Cn2nnc3ccccc32)cc1,-2,0.2
CCN(Cc1ccccc1)C(=O)Cn1c(=O)n(CCc2ccccc2)c(=O)c2ccccc21,-1,.
Cc1nc2ccccn2c1-c1ccnc(SCC(=O)N(c2ccccc2)C2CCCCC2)n1,.,-0.8
CCOC(=O)N1CCN(C(=O)CSc2ncnc3c2nnn3Cc2ccc(F)cc2)CC1,11,-1.5

# Four entries from above, as tab-separated lines:
mol	S aureus helic	MgrA DNA FP
CCn1cnc2cc(NCc3cccs3)ccc21	9	.
CCN(CC)c1ncnc2ccc(Br)cc12	-7	2.0
CC(C)(C)c1cc(CN2CCN(CCC#N)CC2)cc(C(C)(C)C)c1O	11	0.4
c1ccc2c(c1)nnn2Cc1ccc(Cn2nnc3ccccc32)cc1	-2	0.2

# Next section.
SMILES,S aureus helic,MgrA DNA FP
NNc1nc(OC(C(F)(F)F)C(F)(F)F)nc(N(c2ccccc2)c2ccccc2)n1,6,-3.7
C/C(=N\NC(N)=O)c1ccc(NC(=O)c2ccc(F)cc2)cc1,-36,.
Cc1ccc(S(=O)(=O)NC(=O)Nc2ccc(C(F)(F)F)cc2Cl)cc1,.,-0.9
Cc1ccc(F)cc1NC(=O)[C@H](C)N1C(=O)C2CC=CCC2C1=O (stereo partly drawn),-16,.
COc1ccc2[nH]c(=O)c(C(c3nnnn3Cc3ccccc3)N3CCc4ccccc43)cc2c1 (stereo not drawn),-2,0.2
Cc1cccc(C)c1OCC(=O)Nn1c(=O)[nH]c2ccccc2c1=O,18,1.1
O=C(NC1CCCCC1)C12CC3CC(CC(Cl)(C3)C1)C2,1,.
N#CCOc1ccc(-c2ccccc2)cc1,8,0.1
Cc1ccc(S(=O)(=O)CC2CSc3nc(N)cc(=O)n32)cc1 (stereo not drawn),37,.
O=C(CCSc1ccccc1)NCCc1ccccc1,4,0.5
O=C(OCC(=O)N1CCC(Cc2ccccc2)CC1)c1ccccc1,-17,-3.0
CCOC(=O)c1c(NC(=O)c2cc3cc(Br)ccc3oc2=O)sc2c1CCC2,.,1.7
CC1(C)OC2C(CO)OC(n3ncc(=O)[nH]c3=O)C2O1 (stereo not drawn),7,-1.4
Cn1c(SCC(=O)Nc2ccccc2)nc2c(c1=O)SCC2,26,.
Cc1nc(N)oc1C,-10,.
COc1ccc(/C=C2/SC(=O)N(CCC(=O)Nc3ccccc3Br)C2=O)cc1,.,-1.4
O=C(COc1ccc2oc3c(c2c1)CCCC3)Oc1ccc(-c2nnco2)cc1,7,.
CC(=O)Nc1ccc(F)cc1F,.,4.0
Cc1nnc(C)n1/N=C/C(Cl)=C/c1ccccc1,-20,-0.1
CCOC(=O)COc1cccc2c(C)cc(=O)oc12,.,-3.1
CCN1CCN(C(=O)c2cc3c(=O)n(Cc4ccc(OC)cc4)ccc3nc2C)CC1,20,.
O=C(CSc1ncc(C(F)(F)F)cc1Cl)NCCN1C(=O)CSC1=O,-13,.
COc1ccc(C(=O)NCCSc2nnnn2-c2ccccc2)cc1,-11,.
CNC1=CC(=O)CC(c2ccccc2)C1 (stereo not drawn),-9,.
O=C(NCc1nc(-c2cccnc2)n[nH]1)Nc1ccc(Cl)cc1C(F)(F)F,0,0.0
Cc1ccc2[nH]c(=O)c(CN(Cc3ccccc3)C(=O)N(C)C)cc2c1,3,-0.1
C=CCNS(=O)(=O)CC12CCC(CC1=O)C2(C)C (stereo not drawn),8,-0.9
O=S(=O)(c1ccc(Cl)cc1)c1ccc(NCCO)cc1,7,1.1
O=C(CSc1nc2ccccc2c2nc3ccccc3n12)NCCc1ccccc1,7,-0.9
CCOCC(=O)OCc1cc(=O)oc2cc(C)c(Cl)cc12,-5,.
CSc1cccc(N2C(=O)C3CC=C(C)CC3C2=O)c1 (stereo not drawn),.,-2.5
CCOC(=O)c1c(C)oc2nc[nH]c(=O)c12,-7,.
COc1ccc(-c2ocnc2C(N)=O)cc1,.,-3.8
CCN(CC)c1ccc(NS(=O)(=O)c2ccc(C)cc2)cc1,6,-0.7
CC(=O)n1c2ccccc2c2nc(Nc3ccccc3)sc21,-23,.
O=c1c(Cl)c(O)cnn1C1CCCCC1,9,-1.4
C=CCNC(=O)CN1CCN(C)CC1,-11,0.8
CCCn1c(Nc2nc3ccccc3n2C)nc2ccccc21,5,8.1
COC(=O)c1ccc(C(=O)OC)c(NC(=O)c2ccccc2)c1,6,-0.8
Nc1ccccc1S(=O)(=O)NCC(=O)O,-4,.
Cn1cc(NC(=O)Nc2ccccc2F)c2ccccc2c1=O,-3,0.6
O=C1OCCC1Sc1nnc(-c2cccs2)o1 (stereo not drawn),-13,.
CC(=O)Nc1cccc(-c2cn3ccccc3n2)c1,-8,-0.5
Cc1cc(C)n(C(=O)CCCC(=O)n2nc(C)cc2C)n1,4,-1.2
COC(=O)CCN1C(=O)/C(=C/c2ccc(OCc3ccc(Cl)cc3)c(OC)c2)SC1=S,.,3.8
CCCC1(C)SC(NC(C)=O)=NN1C(C)=O (stereo not drawn),3,2.2
O=C(O)/C=C/C(=O)Nc1ccc(-c2cnco2)cc1,.,2.1
COc1ccc2oc(=O)c(C(=O)NCc3cccnc3)cc2c1,23,0.8
CCN1CCN(C(c2cccs2)C(C)NC(=O)c2c(F)cccc2F)CC1 (stereo not drawn),-19,.

# Filtered by structure, the compounds so far with a Cl atom.
SMILES,S aureus helic,MgrA DNA FP
COc1ccccc1N1C(=O)c2ccc(-c3nc4cc(Cl)ccc4c(=O)o3)cc2C1=O,-5,1.4
O=C(NCc1cn2ccsc2n1)c1cc(Cl)cc(Cl)c1,15,0.5
Cc1onc(-c2c(Cl)cccc2Cl)c1-c1noc(CSc2ccccn2)n1,-7,.
O/N=C1\CCCc2c1[nH]c1ccc(Cl)cc21,0,.
O=C(COc1ccc2c(c1)CCC2)N(Cc1nnc(-c2ccc(Cl)cc2)o1)C1CC1,-13,.
NNC(=O)c1csc(Cc2c(Cl)cccc2Cl)n1,.,-0.6
NC(=O)OCC(O)COc1ccc(Cl)cc1 (stereo not drawn),.,0.9
COc1ccc(-c2nnc3ccc(Cl)nn23)c(OC)c1,1,-2.8
Cc1ccc(S(=O)(=O)NC(=O)Nc2ccc(C(F)(F)F)cc2Cl)cc1,.,-0.9
O=C(NC1CCCCC1)C12CC3CC(CC(Cl)(C3)C1)C2,1,.
Cc1nnc(C)n1/N=C/C(Cl)=C/c1ccccc1,-20,-0.1
O=C(CSc1ncc(C(F)(F)F)cc1Cl)NCCN1C(=O)CSC1=O,-13,.
O=C(NCc1nc(-c2cccnc2)n[nH]1)Nc1ccc(Cl)cc1C(F)(F)F,0,0.0
O=S(=O)(c1ccc(Cl)cc1)c1ccc(NCCO)cc1,7,1.1
CCOCC(=O)OCc1cc(=O)oc2cc(C)c(Cl)cc12,-5,.
O=c1c(Cl)c(O)cnn1C1CCCCC1,9,-1.4
COC(=O)CCN1C(=O)/C(=C/c2ccc(OCc3ccc(Cl)cc3)c(OC)c2)SC1=S,.,3.8

# Compound activity from PubChem BioAssay.
